# Source: PubChem BioAssay
# DUX4 txn inh: inhibitors of DUX4-driven ZSCAN4 reporter expression, primary screen, 293T cells, Gaussia and Italica luciferase; 293T-iDUX4 ZSCAN4-Gaussia luciferase reporter, 24 h; stronger effect = lower value; activity change, negative = inhibition, % (concentration not given with the values); hit rate 0.8% among 37,000;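 active = -10% or lower and over 25 points stronger than a control reporter; inconclusive = -10% or lower with a smaller gap; inactive = above -10%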;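 note: 0% = median of neutral control wells and -100% = median of positive control wells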
# DUX4 txn inh difference: also measured in DUX4 txn inh; calls as there; Gaussia minus Italica difference, %; measured here: selective DUX4 reporter inhibition;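 worked out from the two reporters; negative = selective loss of the DUX4 reporter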
# DUX4 txn inh control: further read-out of DUX4 txn inh, marked with its call; activity change, negative = inhibition, %; measured here: Italica tet-on control reporter;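 0 = neutral control and -100 = positive control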
# An asterisk follows results filed as active; ? = inconclusive; / = no result given. This is a subset (hit frequency here may not be typical).
SMILES,DUX4 txn inh,DUX4 txn inh difference,DUX4 txn inh control
CCC(=O)NC[C@@H]1[C@@H](c2ccc(-c3cccc(F)c3)cc2)[C@@H](CO)N1C(=O)CC,-2.4,0.9,-3.3
C[C@H]1CN([C@@H](C)CO)C(=O)CCCn2nncc2CO[C@@H]1CN(C)C(=O)Nc1ccccc1F,5.5,4.2,1.3
CCC(=O)N1[C@@H]2c3cccc(=O)n3C[C@@H]2[C@@H](CO)[C@@H]1C(=O)N1CCCCC1,4.1,6.5,-2.4
COCC#Cc1cnc2c(c1)C(=O)N([C@H](C)CO)C[C@@H](C)[C@@H](CN(C)C(=O)Nc1ccccc1OC)O2,3.2,0.2,2.9
CC(=O)N(C)C[C@H]1[C@H](c2ccc(-c3cccc(C#N)c3)cc2)[C@@H](CO)N1C(C)=O,-2.3,-1.2,-1.1
CCN(C[C@H]1[C@H](c2ccccc2)[C@@H](CO)N1CC1CC1)C(=O)c1cccc(F)c1,-4.4,-0.5,-3.9
CN1[C@@H]2c3ccc(-c4ccccc4)c(=O)n3C[C@H]1[C@H](CO)[C@H]2C(=O)NCCc1ccccc1,-5.5,-12.8,7.3
COCC(=O)N(C)C[C@@H]1Oc2cc(C#CCC3CCCC3)ccc2S(=O)(=O)N([C@H](C)CO)C[C@H]1C,5.8,3.7,2.1
O=S(=O)(c1ccccc1)N1CC2(C1)[C@H](c1ccccc1)[C@@H](CO)N2CC1CCCC1,?,/,/
CN(C)Cc1cn(CC[C@H]2CC[C@H](NC(=O)Cc3cccnc3)[C@@H](CO)O2)nn1,0.2,-3.3,3.5
Cc1noc(C)c1NC(=O)N(C)C[C@@H]1Oc2c(NC(=O)c3nc4ccccc4s3)cccc2C(=O)N([C@@H](C)CO)C[C@H]1C,3.1,0.8,2.3
COc1ccc(S(=O)(=O)N(C)C[C@@H]2OCCCC[C@H](C)Oc3ccc(NC(=O)Cc4ccccc4)cc3C(=O)N([C@@H](C)CO)C[C@@H]2C)cc1,-2.1,-0.4,-1.7
O=C(Nc1cccc(F)c1)N1CCCCN2[C@@H](CO)[C@@H](c3ccc(C#Cc4cccnc4)cc3)[C@@H]2C1,?,/,/
CN(C)CC#Cc1ccc([C@@H]2[C@H]3CN(C(=O)Cc4ccccc4)CC(=O)N3[C@H]2CO)cc1,14.2,4.9,9.4
O=C(NCc1ccc(F)cc1)[C@H]1N[C@H]2c3ccc(-c4ccccc4)c(=O)n3C[C@H]2[C@@H]1CO,-0.1,-0.8,0.7
Cc1cccc(-c2ccc([C@H]3[C@@H](CO)N4CCCCN(S(=O)(=O)c5ccccc5F)C[C@H]34)cc2)c1,?,/,/
COc1ccc2c3c([nH]c2c1)[C@@H](CO)N(S(C)(=O)=O)CC31CN(C(=O)Cc2cccnc2)C1,14.7,4.1,10.6
CN1C(=O)c2cc(NC(=O)c3cccc(C(F)(F)F)c3)ccc2OC[C@H]2O[C@H](CC(=O)O)CC[C@@H]21,-1.5,-2.9,1.4
COc1ccccc1-c1ccc([C@@H]2[C@H](CO)N3CCCCN(C(=O)c4cccnc4)C[C@@H]23)cc1,8.0,3.1,4.9
C(=C\c1ccc(C2[C@H]3CNC[C@@H]2N3Cc2ccc3c(c2)OCO3)cc1)/c1ccccc1 (some centres not stated),8.1,4.9,3.2
CCCNC(=O)N1[C@@H]2c3cccc(=O)n3C[C@H]1[C@H](CO)[C@H]2C(=O)N1CCC(Cc2ccccc2)CC1,-0.1,0.0,0.0
O=C(NCC1CCCCC1)[C@@H]1N[C@@H]2c3ccc(C4=CCCC4)c(=O)n3C[C@@H]2[C@H]1CO,-0.1,1.4,-1.5
CO[C@@H]1CN(C)C(=O)c2cc(NC(=O)C3CCCC3)ccc2OC[C@H](C)N(C(=O)CC2CC2)C[C@H]1C,0.2,2.9,-2.7
CC(C)NC(=O)N[C@H]1C=C[C@@H](CC(=O)O)O[C@@H]1CO,2.9,2.9,0.0
O=C(Cc1ccncc1)N1CC[C@@H]2[C@@H](CO)Nc3ccc(C4=CCCCC4)cc3[C@@H]21,16.0,7.5,8.5
# Next records:
SMILES,DUX4 txn inh,DUX4 txn inh difference,DUX4 txn inh control
N#C[C@@H]1[C@@H](c2ccc(-c3cccc(F)c3)cc2)[C@H](CO)N1C(=O)CN1CCOCC1,-2.0,-3.2,1.2
CC(C)NC(=O)N1CC[C@@H]2[C@@H](CO)N(C)c3ccc(-c4cccc(F)c4)cc3[C@@H]21,-2.1,-1.7,-0.4
O=C(Nc1ccccc1)N1CC(=O)N2[C@H](C1)[C@@H](c1ccc(C#CC3CCCCC3)cc1)[C@@H]2CO,12.0,-6.7,18.7
COc1ccccc1S(=O)(=O)N1CC[C@@H]2[C@H]1c1cc(-c3ccc(F)cc3)ccc1N(C)[C@H]2CO,-5.9,2.0,-7.9
CN(C)C(=O)[C@@H]1[C@@H](CO)[C@@H]2Cn3c(cccc3=O)[C@@H]2N1C(=O)C1CCCCC1,-4.3,-0.6,-3.8
COc1ccccc1CNC(=O)C[C@H]1C[C@H]2c3cc(NC(=O)CN(C)C)ccc3O[C@H]2[C@H](CO)O1,1.9,2.2,-0.4
C[C@@H]1CN([C@H](C)CO)C(=O)c2cccc(NC(=O)Nc3ccc(F)cc3)c2O[C@H]1CN(C)S(=O)(=O)c1ccc(Cl)cc1,-4.2,-4.8,0.6
COc1ccccc1NC(=O)N[C@H]1CC[C@H](CC(=O)N[C@@H](C)c2ccccc2)O[C@H]1CO,4.2,5.0,-0.8
CCCC#Cc1ccc([C@H]2[C@@H](CO)N(C(C)=O)[C@H]2CN(C)C(=O)C2CC2)cc1,1.4,-2.7,4.1
CCCNC(=O)[C@@H]1[C@@H](CO)[C@@H]2Cn3c(ccc(C4=CCCC4)c3=O)[C@@H]2N1CCC,5.1,-1.1,6.2
N#C[C@@H]1[C@H](c2ccccc2-c2ccccc2F)[C@@H](CO)N1C(=O)C1CC1,8.1,-4.7,12.8
CN1C(=O)c2cc(NC(=O)c3ccc(F)c(F)c3)ccc2OC[C@@H]2O[C@@H](CC(=O)N[C@H]3CCN(Cc4ccccc4)C3)CC[C@@H]21,4.4,2.7,1.7
CN(C)CC(=O)N1[C@H](CO)[C@@H](c2ccccc2)C12CN(CC1CCOCC1)C2,5.3,1.3,4.0
COc1ccc([C@H]2CC=CC[C@H](C)Oc3ccccc3C(=O)N(C)[C@@H](Cc3ccccc3)C(=O)N2)c(OC)c1 (mixture of isomers),-2.4,0.6,-3.0
COc1ccccc1-c1ccc2n(c1=O)C[C@H]1[C@H](CO)[C@@H](C(=O)N[C@@H](C)c3ccccc3)[C@@H]2N1C,3.7,3.9,-0.2
CCC(=O)N1CC2(C1)[C@H](c1ccc(-c3ccccc3)cc1)[C@@H](CO)N2C(C)=O,4.9,1.5,3.4
O=C(C[C@@H]1CC[C@H]2[C@@H](COC[C@@H](O)CN2Cc2nccs2)O1)NCc1ccc(Oc2ccccc2)cc1,?,/,/
O=C(C[C@H]1CC[C@@H]2[C@H](COC[C@H](O)CN2C(=O)Nc2ccc(Cl)cc2)O1)N1CCCCC1,5.5,-2.1,7.6
COCC#Cc1ccc2c(c1)O[C@@H](CN(C)C(=O)C1CCOCC1)[C@H](C)CN([C@@H](C)CO)S2(=O)=O,-2.8,-0.7,-2.1
COc1ccccc1CN1C[C@@H]2N[C@H](C1)C2c1ccc(-c2ccc(C(=O)N(C)C)cc2)cc1 (some centres not stated),?,/,/
C[C@H](CO)N1C[C@H](C)[C@H](CN(C)S(C)(=O)=O)OCc2ccccc2-c2ccccc2C1=O,2.7,0.4,2.3
O=C(CCN1CCCCC1)NCC[C@@H]1CC[C@H](NC(=O)Cc2cccnc2)[C@@H](CO)O1,3.9,-0.2,4.0
O=C(Nc1cccc(Cl)c1)N1C[C@H]2[C@@H](c3ccccc31)[C@H](CO)N2CC1CCCCC1,2.3,1.0,1.2
O=C(NC1CCCC1)[C@@H]1[C@@H](CO)[C@@H]2Cn3c(cccc3=O)[C@@H]2N1C(=O)NC1CCCC1,4.2,-3.6,7.9
C[C@@H]1CN([C@@H](C)CO)C(=O)c2ccccc2-c2ccccc2CO[C@H]1CN(C)S(=O)(=O)c1ccc([N+](=O)[O-])cc1,4.9,-0.6,5.5
# (next part)
SMILES,DUX4 txn inh,DUX4 txn inh difference,DUX4 txn inh control
C[C@@H]1CN([C@H](C)CO)C(=O)c2cc(NC(=O)Cn3cnnn3)ccc2O[C@@H]1CN(C)C(=O)Nc1ccc2c(c1)OCO2,1.5,3.6,-2.1
COc1cccc(NC(=O)N2CC(=O)N3[C@H](CO)[C@H](c4ccc(Br)cc4)[C@H]3C2)c1,4.6,3.1,1.5
C[C@H]1CN([C@@H](C)CO)C(=O)CCCn2cc(nn2)CO[C@H]1CN(C)S(=O)(=O)c1cccc(F)c1,8.6,5.0,3.6
CCNC(=O)[C@H]1[C@H](CO)[C@H]2Cn3c(ccc(/C=C/c4ccccc4)c3=O)[C@@H]1N2C(C)=O,7.1,3.1,4.0
COC(=O)C[C@H]1C[C@@H]2c3cc(NS(=O)(=O)c4cccc(OC)c4)ccc3O[C@@H]2[C@H](CO)O1,7.8,4.5,3.3
CN(C)CC(=O)Nc1ccc2c(c1)[C@@H]1C[C@@H](CC(=O)NCCc3ccccc3)O[C@H](CO)[C@@H]1O2,-0.2,-4.7,4.5
COc1cccc(S(=O)(=O)N(C)C[C@@H]2OCc3cn(nn3)CCCC(=O)N([C@H](C)CO)C[C@H]2C)c1,4.3,1.9,2.4
CCNC(=O)[C@H]1[C@H](CO)[C@H]2Cn3c(ccc(-c4cccc(F)c4)c3=O)[C@@H]1N2C(=O)c1ccccn1,6.9,3.5,3.4
C[C@H]1CN([C@@H](C)CO)C(=O)CCCn2cc(nn2)CO[C@H]1CN(C)S(=O)(=O)c1ccc(Cl)cc1,4.1,3.4,0.7
CN(C)C(=O)C[C@H]1CC[C@@H](NC(=O)Nc2cccc(F)c2)[C@H](CO)O1,-6.0,-0.3,-5.8
O=C(NC1CCCC1)N1CCCCN2[C@H](C1)[C@@H](c1ccc(-c3cccnc3)cc1)[C@@H]2CO,7.9,15.4,-7.5
C[C@@H]1CN([C@H](C)CO)C(=O)c2cc(NC(=O)Cc3cn(C)c4ccccc34)ccc2O[C@H]1CN(C)C(=O)Nc1ccc(C(F)(F)F)cc1,-0.3,2.2,-2.5
N#C[C@@H]1[C@@H](c2ccc(C3=CCCCC3)cc2)[C@H](CO)N1C(=O)c1cccc(F)c1,-4.0,-2.0,-2.0
C/C=C/c1ccc([C@@H]2[C@@H](CO)N(C(=O)NC(C)C)[C@H]2CN(C)C(=O)CC)cc1,1.8,-2.6,4.3
CN(C)C(=O)c1cccc(-c2ccc3c(c2)[C@H]2[C@H](CCN2C(=O)c2ccccc2F)[C@H](CO)N3)c1,?,/,/
CC=Cc1ccc2n(c1=O)C[C@@H]1[C@@H](CO)[C@H](C(=O)NCC3CC3)N(Cc3ccncc3)[C@H]21 (mixture of isomers),6.6,7.7,-1.0
CCCN1[C@@H]2c3ccc(-c4ccncc4)c(=O)n3C[C@H]1[C@H](CO)[C@H]2C(=O)NCCc1cn(C)cn1,0.8,-3.5,4.3
CCC(=O)N1CC2(C1)CN(C(=O)Nc1ccccc1F)[C@H](CO)c1[nH]c3cc(OC)ccc3c12,4.2,-7.1,11.3
COCC(=O)N1CC2(C1)CN(Cc1ccccc1Cl)[C@@H](CO)c1c2c2ccc(OC)cc2n1C,3.4,2.8,0.6
COc1ccccc1S(=O)(=O)N(C)C[C@@H]1Oc2cc(C#CCC(C)C)ccc2S(=O)(=O)N([C@H](C)CO)C[C@H]1C,-3.8,-2.6,-1.2
O=C(Nc1ccccc1F)N1C[C@H]2[C@@H](c3ccccc31)[C@@H](CO)N2C(=O)Cc1ccccc1,-1.2,1.5,-2.7
COc1ccc2c3c(n(C)c2c1)[C@@H](CO)N(C(C)=O)CC31CCN(Cc2cncnc2)CC1,16.8,11.8,5.1
Cc1ccc(S(=O)(=O)N(C)C[C@@H]2OCc3ccccc3-c3c(n(C)c4ccccc34)C(=O)N([C@@H](C)CO)C[C@@H]2C)cc1,?,/,/
COc1ccc(C#Cc2ccc3c(c2)O[C@@H](CN(C)C(=O)NC2CCCCC2)[C@@H](C)CN([C@H](C)CO)S3(=O)=O)cc1,-3.1,-5.0,1.9
O=C(C[C@H]1CC[C@@H](NS(=O)(=O)c2ccc(F)cc2)[C@H](CO)O1)NCCc1ccncc1,1.1,-4.7,5.7
CC(=O)N1CCCCN2[C@H](CO)[C@@H](c3ccc(C#Cc4ccccc4F)cc3)[C@H]2C1,-7.4,0.0,-7.4
COc1ccccc1-c1ccc([C@H]2[C@H](CO)N3CCCCN(Cc4ccncc4)C[C@@H]23)cc1,1.9,8.0,-6.1
CCS(=O)(=O)N1CCCCN2[C@H](CO)[C@@H](c3ccc(C#CC(C)(C)O)cc3)[C@H]2C1,26.0,15.1,10.9
